Bioassay records as filed in PubChem BioAssay.
KCNQ2 block = KCNQ2 channel blockers in CHO-K1 cells – cell-based, FluxOR thallium flux, B-score, primary screen (AID 2156); O88943; 20 min; hits give low values; only compounds with negative scores are shown here; some inactives read as strong as hits; B-score at 10 µM; 1.1% of 310,000 active;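 active = fluorescence ratio B-score at most minus 3 library SDs, with starting brightness B-score within 2 library SDs, cut at about -5.5 in these data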
Target sequence (O88943 whole entry, looked up): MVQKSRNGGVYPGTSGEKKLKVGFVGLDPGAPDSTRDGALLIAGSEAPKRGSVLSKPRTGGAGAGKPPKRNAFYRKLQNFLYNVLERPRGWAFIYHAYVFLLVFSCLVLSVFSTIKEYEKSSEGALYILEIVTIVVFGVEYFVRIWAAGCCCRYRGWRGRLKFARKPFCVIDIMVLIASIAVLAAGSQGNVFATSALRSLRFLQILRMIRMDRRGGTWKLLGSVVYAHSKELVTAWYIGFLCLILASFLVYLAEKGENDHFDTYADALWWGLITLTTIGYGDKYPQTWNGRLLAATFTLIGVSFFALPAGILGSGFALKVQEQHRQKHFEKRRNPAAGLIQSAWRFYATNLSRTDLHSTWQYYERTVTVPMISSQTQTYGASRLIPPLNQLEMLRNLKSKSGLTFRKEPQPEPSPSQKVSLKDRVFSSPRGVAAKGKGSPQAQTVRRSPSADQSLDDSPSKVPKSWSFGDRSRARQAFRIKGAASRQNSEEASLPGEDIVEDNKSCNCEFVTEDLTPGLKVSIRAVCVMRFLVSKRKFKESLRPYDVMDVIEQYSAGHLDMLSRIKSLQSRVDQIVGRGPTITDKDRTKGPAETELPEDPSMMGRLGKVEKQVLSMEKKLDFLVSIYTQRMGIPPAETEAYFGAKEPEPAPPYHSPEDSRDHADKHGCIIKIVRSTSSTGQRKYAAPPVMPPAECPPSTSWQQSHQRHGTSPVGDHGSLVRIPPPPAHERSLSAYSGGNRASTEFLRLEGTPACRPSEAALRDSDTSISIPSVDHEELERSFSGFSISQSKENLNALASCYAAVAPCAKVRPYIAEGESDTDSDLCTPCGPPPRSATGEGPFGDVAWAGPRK
KCNQ2 block baseline = further read-out of KCNQ2 block, marked with its call; B-score; measured here: initial fluorescence intensity artifact check;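 brightness before thallium and not channel activity; 0 = typical well and far values either way flag optical interference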
The depositor's hits bear a star; i = inactive. These rows are one share of the data. The share of hits here may be higher or lower than overall.

| No. | SMILES | KCNQ2 block | KCNQ2 block baseline |
| --- | --- | --- | --- |
| 1 | CC1=Nc2cc([N+](=O)[O-])ccc2NC(C)(C)C1 | i | -1.4 |
| 2 | O=C(CSCc1ccc(Cl)cc1)N1CCN(Cc2ccc3c(c2)OCO3)CC1 | i | 3.3 |
| 3 | CCn1nnc(-c2ccccc2NC(=O)c2cccc(-n3cnnn3)c2)n1 | i | -0.08 |
| 4 | O=C(Cc1ccccn1)c1ccc(O)cc1O | i | -0.27 |
| 5 | CCOC(=O)CCNC(C(=O)OCC)c1ccccc1 (stereo not drawn) | i | -0.21 |
| 6 | CC(C)n1c(SC2C(=O)CC(C)(C)CC2=O)nc2c1c(=O)n(C)c(=O)n2C | i | 0.03 |
| 7 | COc1ccc(N(CC(=O)N2CCN(c3ccc(F)cc3)CC2)S(=O)(=O)c2c(C)noc2C)cc1 | i | 1.6 |
| 8 | CC(C)(C)NC(=O)CSc1nnc(C2CC2)n1Cc1ccccc1 | i | 1.1 |
| 9 | Cn1c(Cn2c(=O)sc3ccccc32)nnc1SCc1ccccc1F | i | -0.03 |
| 10 | c1ccc(-c2nc(N3CCCCCC3)nc(-n3ccnc3)n2)cc1 | i | -0.7 |
| 11 | O=c1c2ccccc2nnn1CSc1nnc(-c2cccs2)n1Cc1ccccc1 | i | 0.2 |
| 12 | CCOC(=O)c1c(-c2ccc(OC)cc2)cn2ccccc12 | i | 0.77 |

Profiles, looked up by structure.
CCn1nnc(-c2ccccc2NC(=O)c2cccc(-n3cnnn3)c2)n1 reads KCNQ2 block = i; KCNQ2 block baseline = -0.08
O=c1c2ccccc2nnn1CSc1nnc(-c2cccs2)n1Cc1ccccc1 reads KCNQ2 block = i; KCNQ2 block baseline = 0.2

The results go on.
| No. | SMILES | KCNQ2 block | KCNQ2 block baseline |
| --- | --- | --- | --- |
| 13 | CCCCNS(=O)(=O)c1ccc2nc(-c3cccnc3)cc(C(=O)NC3CCCC3)c2c1 | i | 1.9 |
| 14 | CC1CCN(CCCNC(=O)c2ccc3c(=O)n(CCc4ccccc4)c(=O)[nH]c3c2)CC1 | i | 0.21 |
| 15 | Cc1ccc2c(c1)c(Sc1ccccc1)c(CC(=O)O)n2C | i | 1.7 |
| 16 | NS(=O)(=O)c1ccc(N=Cc2c(O)c3ccccc3oc2=O)cc1 | i | -1.3 |
| 17 | COc1ccc(OC)c(CN2CCN(Cc3cccc4ccccc34)CC2)c1 | i | 0.99 |
| 18 | O=C(/C=C/c1ccc(F)cc1)NCc1cccs1 | i | -1.4 |
| 19 | Cn1cc([N+](=O)[O-])c(C(=O)N/N=C/c2ccc([N+](=O)[O-])cc2)n1 | i | -0.03 |
| 20 | Cc1cc(C)c(C#N)c(SCCS(=O)(=O)Cc2ccccc2)n1 | i | -0.63 |
| 21 | O=[N+]([O-])c1cc([N+](=O)[O-])c(Oc2c(F)cccc2F)cc1NN1CCCCC1 | i | -1.8 |
| 22 | OC1c2cc(Br)ccc2N=C2CCCN21 (stereo not drawn) | -7.7* | 0.49* |
| 23 | COc1ccccc1CNC(=O)C1CCN(S(=O)(=O)c2ccc3c(c2)CC(C)N3C(=O)C2CC2)CC1 (stereo not drawn) | i | 1.6 |
| 24 | CC(=O)N1CCN(Cc2nc3cc(NC(=O)COc4cccc(C)c4)ccc3n2C)CC1 | i | -1.9 |

Single values from above.
Entry of #23 under KCNQ2 block baseline: 1.6
Entry of #14 under KCNQ2 block baseline: 0.21

Next section:
| No. | SMILES | KCNQ2 block | KCNQ2 block baseline |
| --- | --- | --- | --- |
| 25 | Cc1ccc(S(=O)(=O)Nc2c(C)nc3nc(C)[nH]n3c2=O)cc1 | i | 1.7 |
| 26 | O=C(CNC(=O)CNC(=O)c1ccc(Cl)cc1Cl)NCc1cccc(Cl)c1 | i | 1.6 |
| 27 | COc1ccccc1CN1C(=O)CN(C2CCCC2)C(=O)C1c1ccc(F)cc1 (stereo not drawn) | i | -0.07 |
| 28 | Cc1cc([N+](=O)[O-])c(C)cc1-c1ccc(/C=N/NC(=O)Cn2nnnc2N)o1 | i | -0.05 |
| 29 | Cc1nn(-c2ccccc2)c(C)c1C(=O)OCC(=O)N1c2ccccc2NC(=O)C1(C)C | i | -0.72 |
| 30 | COc1cccc(OC)c1C(=O)NC(=S)Nc1cccc(NC(=O)c2ccco2)c1 | i | 0.48 |
| 31 | O=C(NCc1ccccc1)C12CN(Cc3ccccc3)CC1C(c1cccc([N+](=O)[O-])c1)=NO2 (stereo not drawn) | i | -1.9 |
| 32 | Cc1ccc(N(CC(=O)NCC2CCCO2)C(=O)CCC(=O)Nc2ccccn2)cc1C (stereo not drawn) | i | 0.04 |
| 33 | CC(=O)OC(C)(CCC(C)(OC(C)=O)C(C)=O)C(C)=O (stereo not drawn) | i | -0.64 |
| 34 | Cc1sc2ncn(CC(=O)N3CCC(C(N)=O)CC3)c(=O)c2c1S(=O)(=O)N1CC(C)CC(C)C1 (stereo not drawn) | i | -1.4 |
| 35 | O=C(CSc1ccccc1C(=O)O)c1ccc([N+](=O)[O-])cc1 | i | 0.96 |
| 36 | COc1ccc(N(C=O)C(=S)SC)cc1 | i | -0.16 |
| 37 | CN1CCN(c2ccc(NC(=O)c3ccc([N+](=O)[O-])o3)cc2Cl)CC1 | i | -0.54 |
| 38 | O=C(Nc1sc2c(c1-c1nc3ccccc3[nH]1)CCCC2)C1CCCC1 | i | -1.6 |
| 39 | Nc1[nH]n(-c2ccccc2)c(=O)c1N=Nc1ccc2ncsc2c1 | i | -0.03 |
| 40 | O=C(NO)c1ccc(C(=O)N(C2CCCCC2)C2CCCCC2)cc1 | i | 2.4 |
| 41 | Cc1ccc(NC(=O)n2ncc3c(C)cccc32)c(C)c1 | i | 2.2 |
| 42 | O=c1oc2ccc3ccccc3c2c2c1SC(C(F)(F)F)C2 (stereo not drawn) | i | -0.66 |
| 43 | Cc1ccccc1NC(=O)CSc1nc2scc(C)c2c(=O)[nH]1 | i | -0.79 |
| 44 | CN(C(=O)C1CCC(=O)N(C2CC2)C1)C1CCCCC1 (stereo not drawn) | i | 0.89 |
| 45 | CCOc1ccc(OCc2ccc(C(=O)Nc3cccnc3)o2)cc1 | i | -2.9 |
| 46 | CCOC(=O)C1(CC2CCCCO2)CCN(Cc2cc(F)ccc2-n2cccn2)CC1 (stereo not drawn) | i | 2.8 |
| 47 | CCn1nc(C)cc1C(=O)N1CCCC(N2CCN(c3cccc(Cl)c3)CC2)C1 (stereo not drawn) | i | 0.03 |
| 48 | COc1ccccc1OCCNC(=O)c1ccc(Br)cc1 | i | -0.11 |
| 49 | CCOc1ccccc1NC(=O)COc1coc(CN2CCCc3ccccc32)cc1=O | i | -0.03 |
| 50 | CC1CCCCN1C(=O)Cn1c(=O)oc2cc(S(=O)(=O)N3CCCC3)ccc21 (stereo not drawn) | i | -0.1 |
| 51 | O=C(NCCN1CCOCC1)c1ccc(CS(=O)(=O)Cc2ccccc2F)o1 | i | 0.47 |
| 52 | CN1CCN(c2ccccc2NC(=O)C(Cc2ccccc2)n2cccc2)CC1 (stereo not drawn) | i | 0.25 |
| 53 | COc1ccc(N(CC(=O)Nc2ccc(S(=O)(=O)N3CCOCC3)cc2)S(=O)(=O)c2ccc(F)cc2)cc1 | i | -0.39 |
| 54 | CC(=O)C1=C(O)CC(c2ccccc2)CC1=NCCc1c(C)[nH]c2ccc(C)cc12 (stereo not drawn) | i | 0.32 |
| 55 | CCCN(CC(=O)Nc1cc(Cl)ccc1Cl)C(=O)/C=C/c1ccco1 | i | 2.8 |
| 56 | Cc1ccc(NC(C#N)c2ccccc2OCc2ccccc2)cc1 (stereo not drawn) | i | -0.06 |
| 57 | Nc1nc(-c2ccc(Oc3ccccc3)cc2)c(CC(=O)O)s1 | i | -0.39 |
| 58 | CC1(c2ccccn2)Nc2ccccc2-c2nc3ccccc3n21 (stereo not drawn) | i | -0.93 |
| 59 | COc1ccc(C=C(c2nc3ccccc3s2)c2nc3ccccc3s2)cc1O | i | 0.3 |
| 60 | C/C(=N/NC(=O)c1ccc(C)s1)c1ccncc1 | i | -2.7 |

The closing 4 entries of the part before open the next one:
| No. | SMILES | KCNQ2 block | KCNQ2 block baseline |
| --- | --- | --- | --- |
| 57 | Nc1nc(-c2ccc(Oc3ccccc3)cc2)c(CC(=O)O)s1 | i | -0.39 |
| 58 | CC1(c2ccccn2)Nc2ccccc2-c2nc3ccccc3n21 (stereo not drawn) | i | -0.93 |
| 59 | COc1ccc(C=C(c2nc3ccccc3s2)c2nc3ccccc3s2)cc1O | i | 0.3 |
| 60 | C/C(=N/NC(=O)c1ccc(C)s1)c1ccncc1 | i | -2.7 |
| 61 | Cc1ccc2oc(=O)c(/C=C(\O)c3cccs3)nc2c1 | i | 3.7 |
| 62 | CC(=O)N(C)/C=C1\Sc2ccccc2C1=O | i | -1.3 |
| 63 | Cc1ccc2nc(/C(C#N)=C/c3ccccc3C(=O)O)[nH]c2c1 | i | 0.37 |
| 64 | CC1=C(C#N)c2nc(N)c(C#N)c(C)c2/C1=C\c1ccc(-c2ccccc2C(=O)O)o1 | i | -0.26 |
| 65 | CN(C)CCNC(=O)/C(=C/c1ccc(-c2ccc(Cl)cc2)o1)NC(=O)c1ccccc1 | i | 1.2 |
